NPYLR7 ag – agonists of mosquito NPYLR7 receptor, primary screen, cell-based, Aedes aegypti, calcium fluorescence, mosquito biting behavior | HEK293T NPYLR7/Galpha15, GCaMP6s calcium fluorescence | activation, % at 10 µM | 0.15% of 270,000 active | AID 1259423, 2018; in the data active = activation above about 40%;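 also: 0% = vehicle and 100% = reference agonist at the receptor; some compounds past the cut are filed as inactive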
NPYLR7 ag max-min – recorded beside NPYLR7 ag, whose call it bears; activation, %; measured here: Max-Min RFU normalised activation; some inactives read as strong as hits;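 span of the calcium signal over five minutes; 0% = vehicle and 100% = native peptide agonist; compound fluorescence can raise it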
Numbers without * were called inactive; & = joins results of further samples.

SMILES	NPYLR7 ag	NPYLR7 ag max-min
COc1ccccc1CN(C(=O)c1ccccc1)c1ccc(N2CCOCC2)c(Cl)c1	-4	1
Cc1ccc(-[n+]2c3ccccc3nc3ccccc32)cc1	2	46
O=C(NC1CCN(Cc2ccccc2)CC1)c1cc(-c2ccc(F)cc2)nc2cc(-c3ccccc3)nn12	6	24
Cc1ccc(C(=O)Nc2nc3c(s2)CCC3C(=O)NCc2ccccn2)cc1 (stereo not drawn)	13	-1
CNC(=O)c1ccc(S(=O)(=O)N2CCCC(C)CC2)cc1 (stereo not drawn)	1	3
Cc1ccc(S(=O)(=O)Nc2ccc(Nc3nccn4c(-c5ccccc5Oc5ccccc5)cnc34)cc2)cc1	-6	-9
O=C(CN1CSCC1=O)Nc1nc(-c2ccco2)c(-c2ccco2)s1	0	4
Cc1nn(C)cc1S(=O)(=O)NCCCN1CCOCC1	2	1
Cc1cccc(/C=C/C(=O)N2CCN(Cc3csc(C)n3)CC2)c1	-2	-1
O=C(NCCCN1CCCC1=O)C(C1CCCC1)N1CCN(C(=O)Nc2cccc(F)c2)CC1 (stereo not drawn)	-5	-2
CCOC(=O)CN(C(=O)NC1CCCCC1)[C@@H]1C[C@@H]2CO[C@H](c3ccccc3)C[C@@H]2C1	7	15
O=C(COC(=O)c1ccccc1)Nc1ccc2c(c1)OCO2	-3	-4
CCOC(=O)N1CCN(C(=O)c2ccc(N3CCC(NCCc4cccs4)CC3)cc2)CC1	-1	-8
O=C(O)C1CN(C(=O)Cc2c(F)cccc2Cl)c2ccccc2O1 (stereo not drawn)	-2	-2
CCOC(=O)C(C#N)=C1SC2CS(=O)(=O)CC2S1 (stereo not drawn)	26	17
COCCCNC(=O)N(Cc1ccc(OC)cc1)C(C)C1CC1 (stereo not drawn)	1	0
COc1ccccc1CN1CCN(Cc2nc(-c3ccccn3)no2)CC1	6	2
COc1cccc2sc(N(CCCN(C)C)C(=O)c3ccc(Br)s3)nc12	4	1
c1ccc(CCC2=NCCn3cccc32)cc1	0	14
O=C(CCc1nc2ccccc2[nH]c1=O)OCc1ccc(C(=O)Oc2ccccc2)cc1	6	3
CCC(=O)Nc1ccc(OCC(=O)N2CCCC3(CCNCC3)CC2)cc1	7	4
Cc1[nH]nc2ncc(NC(=O)COc3ccc(C(F)(F)F)cc3)cc12	-1	-1
CC(C)(O)c1cc(Cl)ccc1Cl	8	6
CCn1nnc2c(NCCc3ccc(OC)c(OC)c3)ncnc21	-1	6
N#Cc1c(N)c(C#N)c(=S)n(C2CCCCC2)c1N	8	7
Cc1nc(C(C)C)sc1C(=O)Nc1nc2ccccc2[nH]1	-3	-3
COc1ccccc1NC(=O)c1c(O)c2ccccc2[nH]c1=O	-2	-8
c1coc(-c2nnc(CSc3nnc(NC4CC4)s3)o2)c1	9	14
CCCCN(CC(=O)N(CCc1ccccc1)Cc1ccc(C)o1)C(=O)NCC	-4	3
COc1ccc(CNC(=O)CCC2CCCN(C(=O)Cc3ccsc3)C2)c(OC)c1 (stereo not drawn)	8	-3
CNS(=O)(=O)c1ccc2c(c1)oc(=O)c1cc(S(=O)(=O)NC)ccc12	0	-3
CCOC(=O)C1(C/C=C/c2ccccc2)CCCN(C(=O)c2ccc(C#CC(C)(C)O)o2)C1 (stereo not drawn)	11	6
CC(NCC(=O)Nc1c(Cl)cc(Cl)cc1Cl)c1ccc(F)cc1 (stereo not drawn)	-1	-2
CCC(O)CN1CCN(C(=O)c2cnc3snc(C)c3c2)CC1 (stereo not drawn)	5	5
CCCC(C)(C)C(=O)N1CCC1(C)C(=O)NS(=O)(=O)c1cccc(F)c1 (stereo not drawn)	-4	-9
c1ccc(OCCNCC2CCCCC2)nc1	2	-2
COc1cccc(C(CN2CCN(C(=O)NC3C[C@H]3c3ccccc3)CC2)OCc2cccc(Cl)c2)c1 (stereo partly drawn)	-3	2
CCCOc1ccc(Cl)cc1C(=O)N1CCC(C(N)=O)C1 (stereo not drawn)	4	2
N#Cc1ccc(Cl)cc1NC(=O)COC(=O)c1ccc2c(c1)OCO2	-3	-5
NC(=O)C(Cc1ccccc1)NC(=O)Cc1cc(F)ccc1F (stereo not drawn)	1	0
CC[N+](CC)(CC(=O)Nc1c(C)cccc1C)Cc1ccccc1	-22	-28
CCOC(=O)c1cc(C(C)(C)C)n(C2CCN(C(=O)c3cccnc3Cl)CC2)n1	23	14
COc1ccccc1-c1nc2cc(C)ccn2c1NC(=O)C(C)C	-13	-9
Cn1cnc2cnc(Nc3ccc(C(F)(F)F)cc3)cc21	-4	-1
CC(OC(=O)NC1CCCCC1)c1cc2ccccc2o1 (stereo not drawn)	6	2
O=C(c1ccco1)N1CCCN(c2cc(Oc3ccc(F)c(Cl)c3)ncn2)CC1	-13	-1
CCOCCOC(=NC(=O)c1ccc(C)cc1)N(C)C1CCN(C)CC1	-6	2
CCOC(=O)[C@H]1[C@@H](O)C(=O)N(Cc2ccccc2)C12CCN(C(=O)Cc1cccs1)CC2	6	16
Cc1nc(N2CCCCC2)ncc1-c1cc(=O)[nH]c(N2CCN(C)CC2)n1	4	1
COCCNC(=O)C(NC(=O)c1ccc(OC)cc1)C1CCN(C(=O)c2cccc(F)c2)CC1 (stereo not drawn)	11	13
CCC(=O)C1=C(c2ccc(C(C)(C)C)cc2)N(C(=O)CC)n2c(C)nnc2S1	6	0
O=C(Cn1nc(-c2ccco2)oc1=O)Nc1ccc(Br)cc1	2	0
CCCCCn1cc(C2CCN(S(=O)(=O)c3ccc(NC(C)=O)cc3)CC2)c2ccccc21	1	6
CCCCNC(=O)C1(C)CCN1C(=O)c1ccc(OC)c(C(F)(F)F)c1 (stereo not drawn)	3	1
Cc1cc(NS(=O)(=O)c2ccc(NC(=O)c3cc(F)cc(F)c3)cc2)nc(C)n1	3	1
O=C(CN1CCC(Cn2c(COc3ccccc3)nc3ccccc32)CC1)Nc1nccs1	-2	-4
Cc1ccc(CSc2ncc(CO)n2CC(=O)NC(C)C)cc1	6	1
COc1ccc(OC)c(C2C(C(=O)OC(C)C)=C(C)NC3=C2C(=O)CC(c2ccccc2)C3)c1 (stereo not drawn)	9	6
CCc1nc(Nc2cccc(C(F)(F)F)c2)c2ccccc2n1	-2	2
CSc1ccc(/C=C/c2nc(N)nc(-c3ccccc3O)n2)cc1	6	1
Remaining list, next part:
SMILES	NPYLR7 ag	NPYLR7 ag max-min
CC(C)c1c(C(=O)NCC2CCCCCCC2)cnn1-c1ccccn1	1	1
CCN(C/C=C/c1ccccc1)C(=O)c1cnn2ccn(C)c12	-2	0
CCOC(=O)C1(Cc2ccc(OC)cc2)CCN(C(=O)C2CCOC2)CC1 (stereo not drawn)	8	8
COC(=O)c1cccnc1Sc1nnc(NC(C)(C)C)s1	3	-1
Cc1ccc(CN2CC(C(=O)N3CCN(c4cc(C)ccn4)CC3)CC2=O)cc1 (stereo not drawn)	-1	-5
Cc1cccc(C)c1NS(=O)(=O)c1ccc(NC(=O)/C=C/C(=O)O)cc1	4	3
CN1CCC(N(Cc2cccnc2)Cc2ccc3c(c2)OCO3)CC1	-1	-2
COc1cc(C=C2SC(=O)N(CCNC(=O)c3ccc4c(c3)OCO4)C2=O)cc(OC)c1OC	13	13
O=C(O)c1cc(C23CC4CC(CC(C4)C2)C3)nc2ccccc12	-2	9
CC1(C(=O)NS(=O)(=O)c2ccccc2Cl)CCN1C(=O)CCc1ccc(Cl)cc1Cl (stereo not drawn)	3	1
COc1cc2c(cc1OC)C(C(C)NC(=O)C1CCCC1)N(Cc1ccc(F)cc1)CC2 (stereo not drawn)	-2	-1
Cc1ccc(F)cc1NC(=O)C(C)NC(=O)c1cnn2ccn(C)c12 (stereo not drawn)	8	7
CCOC(=O)C(=C([O-])SC)[n+]1ccccc1	3	4
CCC(C)C(=O)Nc1ccc(-c2nnc3n2CCCCC3)cc1 (stereo not drawn)	0	1
CCc1nn(-c2ccccc2)c(Oc2ccccc2OC)c1CN(CCOC)CC(O)COCc1ccccc1 (stereo not drawn)	6	6
COC(=O)c1ccc(N2C[C@H]3OC(=O)N(Cc4ccccc4OC)[C@H]3C2)nc1	10	7
CCc1cc(C(N)=S)ccn1	-3&-2&-2	-8&-4&-5
CC(N)c1nc(C(C)(C)C)no1 (stereo not drawn)	0	-2
Cc1cccn2c(CNC3CCOC(C)(C)C3)c(C(=O)N3CCOCC3)nc12 (stereo not drawn)	6	12
CC(C(=O)N1CCC(CCC(=O)Nc2ccc(F)c(Cl)c2)CC1)N1CCCC1=O (stereo not drawn)	9	2
CNS(=O)(=O)c1cc(Br)c(C)cc1C	0	-2
O=C(COc1c(Br)cc(Br)c2cccnc12)N/N=C\c1ccc(Cl)o1	3	3
Cc1cccc(C)c1NC(=O)Cn1nc2ccc(SCc3ccc(Cl)cc3)nn2c1=O	2	-1
Cc1ccc2c(C)c(C(=O)NC3CCCN(C4CCN(C)CC4)C3)oc2c1 (stereo not drawn)	11	8
Cc1ccc(-c2c(CN3CCOCC3)c(=O)[nH]c3ccccc23)cc1	-5&5	-7&2
CC(C)(C)c1nnc(N2CCCCC2)s1	-2	-7
C=CCN1C[C@H]2CN(C)c3ccccc3[C@@H]2N(C(=O)c2ccccc2)CCC1=O	3	12
CNc1ccc(C(=O)N2CCOC(Cc3ccccc3)C2)cc1 (stereo not drawn)	19	12
CCOc1ccc(-c2cc3c(=O)n(CC(=O)NCc4ccccc4)ccn3n2)cc1	5	3
COc1ccc(C(=O)N[C@@H]2CCCCC2NC(=O)C2CCCN(C(=O)c3ccco3)C2)cc1 (stereo partly drawn)	4	20
CC(=O)N1CCN(c2cc(Oc3ccc(F)c(Cl)c3)ncn2)CC1	13	12
C/C=C/CC(=O)N(Cc1ccc(F)cc1)CC1CCCO1 (stereo not drawn)	3	1
O=C(Cc1ccccc1)Nc1cccc(C2SCC(=O)N2c2ccc3c(c2)OCCO3)c1 (stereo not drawn)	-3	8
C=CCS(=O)(=O)N1CCC2(CCCN(Cc3cccc(C)c3)C2=O)C1 (stereo not drawn)	3	1
CCn1cc(C(CC(=O)NCc2ccc(F)cc2)c2ccc3c(c2)OCO3)c2ccccc21 (stereo not drawn)	4	13
C=CCOC(C)C(=O)NC(c1ccccc1)c1n[nH]c(C)n1 (stereo not drawn)	3	3
CCCn1c(N)c(Br)c(=O)n(CC(=O)NC)c1=O	-3	-4
CC1CCCCN1S(=O)(=O)N(C)Cc1nc2ccccc2[nH]1 (stereo not drawn)	-2	-3
O=C1CC(c2cccnc2N2CCOCC2)c2cnn(Cc3ccncc3)c2N1 (stereo not drawn)	-2	-4
O=C(Nc1ccc(Cl)c(C(F)(F)F)c1)N1CC=C(n2c(=O)[nH]c3ccccc32)CC1	-12	-17
CCCC(=O)C1=C(O)C(c2cc(C)no2)C(C)(C)CC1=O (stereo not drawn)	-2	-1
CC(C)(C)N(Cc1ccccc1)C(=O)CNc1ccc(I)cc1	0	-1
CCc1ccc(S(=O)(=O)NCCOc2ccc(-c3ccc(F)cc3)nn2)cc1	-8	-8
O=C(NCc1ccc(F)cc1)N1CCCC(c2nc3ccccc3[nH]2)C1 (stereo not drawn)	-2	1
Cc1onc(-c2ccccc2Cl)c1C(=O)NCc1ccccn1	0&-7	4&-7
COCCNC(=O)CCN(Cc1ccccc1)c1nc(-c2ccccc2)nc2ccccc12	-26	-14
N=C1SCC(=O)N1c1ncc(Cc2cccc(Cl)c2)s1	5	1
COc1cc2c(cc1OC)C(c1ccccc1Cl)N(C(=O)c1ccc(-c3ccc(C4CCCCC4)cc3)s1)CC2 (stereo not drawn)	26	8
CCCSc1ncc(CN2CCCC(O)(CN(C)C)CC2)cn1 (stereo not drawn)	2	-8

Source: PubChem (Fisher Drug Discovery Resource Center)

Some of the compounds tested; count on the stated rates, not on these rows.
